Compound activity as filed in PubChem BioAssay.
KCNQ2 pot: potentiators of rat KCNQ2 potassium channel. O88943. CHO-K1 KCNQ2, FluxOR thallium flux fluorescence; active compounds read high. B-score at 10 µM. hit rate 0.54% among 310,000;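 active = fluorescence ratio B-score at least 3 SD of library B-scores, with initial fluorescence B-score within 3 SD, cut at about 5.3 in these data; same plate scores as AID 2156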;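 note: B-score of peak minus minimum over baseline fluorescence ratio after K+ and Tl+ stimulus; positive B-score means potentiation of KCNQ2 with more thallium influx and brighter signal; only the inactives scoring about 0 or higher are listed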
Target sequence (O88943 whole entry, looked up): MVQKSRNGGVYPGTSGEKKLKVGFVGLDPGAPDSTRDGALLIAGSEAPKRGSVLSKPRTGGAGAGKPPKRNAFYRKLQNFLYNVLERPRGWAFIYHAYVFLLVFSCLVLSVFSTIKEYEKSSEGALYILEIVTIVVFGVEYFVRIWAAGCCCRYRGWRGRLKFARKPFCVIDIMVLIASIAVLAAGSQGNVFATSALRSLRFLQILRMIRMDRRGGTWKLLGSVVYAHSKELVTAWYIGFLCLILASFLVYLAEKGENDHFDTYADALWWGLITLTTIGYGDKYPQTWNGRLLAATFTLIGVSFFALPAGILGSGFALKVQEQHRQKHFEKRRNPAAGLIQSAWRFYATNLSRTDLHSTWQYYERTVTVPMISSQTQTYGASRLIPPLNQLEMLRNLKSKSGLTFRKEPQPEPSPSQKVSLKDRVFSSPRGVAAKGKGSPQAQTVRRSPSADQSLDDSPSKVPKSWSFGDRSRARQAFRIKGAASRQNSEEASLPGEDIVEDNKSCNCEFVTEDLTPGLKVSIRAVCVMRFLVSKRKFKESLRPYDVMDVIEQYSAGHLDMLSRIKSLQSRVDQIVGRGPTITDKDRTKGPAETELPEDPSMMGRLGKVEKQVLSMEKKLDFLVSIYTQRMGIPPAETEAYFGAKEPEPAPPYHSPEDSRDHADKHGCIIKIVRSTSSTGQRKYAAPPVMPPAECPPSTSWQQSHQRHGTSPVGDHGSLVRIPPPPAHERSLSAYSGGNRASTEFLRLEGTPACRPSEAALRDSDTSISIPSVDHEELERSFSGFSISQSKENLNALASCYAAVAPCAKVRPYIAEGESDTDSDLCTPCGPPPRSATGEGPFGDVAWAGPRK
KCNQ2 pot baseline: also measured in KCNQ2 pot; calls as there; B-score; compound at 10 µM; measured here: initial fluorescence intensity artifact check;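 brightness before thallium and not channel activity; 0 = typical well and far values either way flag optical interference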
The depositor's hits bear a star. Some of the compounds tested; the hit share may differ from the screen's.

The opening 3 records as a preview:
KCNQ2 pot | KCNQ2 pot baseline | SMILES
0.23 | -2.7 | O=C(Nc1ccc(Oc2ccc(NC(=O)c3ccco3)c(NC(=O)c3ccco3)c2)cc1)c1ccco1
0.37 | 1.8 | Cc1ccccc1C(=O)c1c[nH]c(C(=O)NCc2ccco2)c1
0.28 | -0.05 | COc1cc(OC)cc(C(=O)O/N=C(\N)c2cccc(C)c2)c1

Main list, previewed entries included:
KCNQ2 pot | KCNQ2 pot baseline | SMILES
0.23 | -2.7 | O=C(Nc1ccc(Oc2ccc(NC(=O)c3ccco3)c(NC(=O)c3ccco3)c2)cc1)c1ccco1
0.37 | 1.8 | Cc1ccccc1C(=O)c1c[nH]c(C(=O)NCc2ccco2)c1
0.28 | -0.05 | COc1cc(OC)cc(C(=O)O/N=C(\N)c2cccc(C)c2)c1
0.43 | 0.26 | CN(CC(=O)Nc1ccc(Cl)c(C(F)(F)F)c1)C(=O)c1cccs1
0.89 | 0.5 | Cc1ccc(NC(=O)C2CCN(S(=O)(=O)c3cnc[nH]3)CC2)nc1
1.9 | -0.35 | CC(C)c1nc2ccccc2n1CCC(=O)O
0.5 | -0.03 | Cc1ccc(NS(=O)(=O)c2ccc(NC(=O)C(C)Sc3ccc(Cl)cc3)cc2)c(C)c1 (stereo unspecified)
0.16 | 1.2 | CSc1ccccc1OCc1cc(C(=O)N2C[C@H]3CC[C@H]2C3)no1
1.8 | 0.39 | CCOCCn1c(C(C)O)nc2ccccc21 (stereo unspecified)
1.1 | -0.82 | CCCOc1ccc(Cc2c(Cl)nc(SC)nc2NC)cc1
1.2 | -0.24 | CCCCN(C)CCCNC(=O)CN1N=C(c2ccc(Cl)cc2)CCC1=O
0.29 | 3.5 | CCC(=O)NC(=S)Nc1ccc(-c2nc3ccc(C)cc3s2)cc1
0.33 | 0.8 | Cc1ccc2ccc3cccnc3c2n1
0.16 | 0.03 | COC(=O)c1ccc(OCC(=O)c2ccc(O)cc2O)cc1
0.61 | -3.2 | CCOC(=O)N1CCN(C(=O)c2ccc3c(SCC(=O)O)c4c(nc3c2)CCC4)CC1
0.34 | -1.1 | O=C(CSc1ccc(-c2ccc(F)cc2)nn1)N1CCN(c2ccccc2)CC1
3.1 | 0.05 | CC(=O)N[C@@H](Cc1c[nH]c2ccccc12)C(=O)OCC(=O)Nc1ccc(S(=O)(=O)N(C)C)cc1
0.89 | -0.93 | O=C(CC1S/C(=N/N=C/c2cccnc2)NC1=O)Nc1ccccc1 (stereo unspecified)
2.4 | -0.05 | COc1cc(/C=N/NC(=O)C2COc3ccccc3O2)ccc1O (stereo unspecified)
0.8 | -0.28 | Cc1cc(C(=O)Nc2cnn(Cc3ccc(Cl)cc3Cl)c2)no1
0.32 | -1.2 | O=C1C2CC=CCC2C(=O)N1c1n[nH]c(CCc2ccccc2)n1 (stereo unspecified)
0.28 | 0.29 | O=C(NC1CCCCC1)C(=O)c1c(-c2ccccc2)[nH]c2ccccc12
1.9 | -0.5 | C=CCc1ccc(OCCn2nnc3ccccc32)c(OC)c1
0.65 | 1.3 | COn1c(-c2ccc(Cl)cc2)nc2ncccc21
0.08 | -1.7 | O=C(CCc1ccc(S(=O)(=O)N2CCOCC2)cc1)Nc1ccc2ccccc2c1
0.71 | -0.43 | C=CCSC1=C(C#N)C(c2ccccc2)CC(=O)N1 (stereo unspecified)
1.4 | -0.08 | Cc1ccc(Nc2nc(/N=C/N(C)C)n[nH]2)cc1C
1.5 | 0.24 | CC(=O)c1cc2c(=O)c3ccccc3oc2nc1C
0.99 | 1.6 | CCc1ccc(C2C(C#N)=C(N)C(C#N)(C#N)C3=CCC(C(C)(C)C)CC32)cc1 (stereo unspecified)
0.54 | -2.1 | O=C(Cc1cccs1)NCCS(=O)(=O)N1CCN(c2cccc(Cl)c2)CC1

Carrying on.
KCNQ2 pot | KCNQ2 pot baseline | SMILES
1.6 | -0.06 | CC(C)C(=O)Nc1ccc(Br)cc1Cl
0.68 | -0.06 | Cc1ccc(C(=O)NNC(=O)c2ccc(SCC3CCCO3)c([N+](=O)[O-])c2)cc1 (stereo unspecified)
0.29 | -2.9 | Cc1c(C(=O)O)cnc2cc(-c3ccc(Cl)cc3)nn12
1.8 | -0.78 | CC(C(=O)Nc1nccs1)c1ccc([N+](=O)[O-])cc1 (stereo unspecified)
0.92 | 1.5 | CSc1nnc(-c2ccco2)n1-c1ccccc1
2 | 1.6 | COc1ccc(C(=O)Nc2ccc(C(=O)OCC(=O)c3ccccc3)cc2)cc1
0.67 | -0.15 | O=S(=O)(Nc1nc2ccccc2nc1Cl)c1ccc2ccccc2c1
1.3 | -0.04 | Cc1ccc(C(=O)N/C(=C\c2ccco2)C(=O)N2CCOCC2)cc1C
2.2 | -0.23 | Cn1nc(C(=O)NNC(=O)CCc2ccccc2Cl)c2ccccc2c1=O
0.71 | -0.28 | COc1cc(CNc2ccccc2Oc2cc(=O)n(C)c(=O)n2C)cc(OC)c1OC
1.5 | 1.7 | S=c1[nH]c2ccccc2n1CCOc1ccccc1
1.2 | -1.2 | CCCC(CCC(=O)Nc1cc([N+](=O)[O-])ccc1O)C(=O)O (stereo unspecified)
0.15 | 1.1 | O=C(/C=C/c1ccco1)Nc1ccccc1N1CCCC1
1.5 | -1.4 | COC(=O)[C@@H]1C[C@@]2(O)[C@H](O)[C@H](O)[C@H](O)C[C@H]2N1C/C=C/c1ccccc1
0.65 | 0.12 | CC(C)C(NS(=O)(=O)c1cccc2nsnc12)C(=O)NCCC1=CCCCC1 (stereo unspecified)
0.19 | 1.8 | CCOc1cc2c(cc1OC)C(c1cccc([N+](=O)[O-])c1)NCC2 (stereo unspecified)
0.87 | -0.6 | Nc1ccc(-c2nc3ncccc3o2)cc1
2.4 | 0.9 | COc1ccc(Nc2ncnc3ccccc23)cc1
0.64 | -1.3 | O=C(O)C1C2CC3C(OC(=O)C31)C2Cl (stereo unspecified)
0.38 | 0.45 | O=C(c1ccco1)N(Cc1ccc(Cl)cc1)C1CCS(=O)(=O)C1 (stereo unspecified)
0.01 | 1.3 | COc1ccccc1CNC(=O)COC(=O)c1cccc(S(=O)(=O)N2CCCC2)c1
1.2 | -2.2 | O=C(Cn1cncn1)c1ccc(F)cc1F
1 | -0.1 | Cc1nc(NC(=O)CSc2nnnn2C)sc1C
0.02 | 0.29 | COc1ccc(CCCc2nnc(SCC(=O)Nc3ccc(C)c(C)c3)o2)cc1
0.73 | -0.53 | CCc1nc2c(cnn2-c2ccc(Cl)cc2)c(=O)n1-c1ccc2c(c1)OCCO2
1.9 | 0.39 | Cc1noc(C)c1C(=O)Nc1nccs1
0.05 | -0.15 | CC1(C)Cc2c(sc(NC(=O)c3ccco3)c2C#N)CO1
1.6 | -2.2 | CCC1=C(OC(=O)N(CC)CC)N2C(=O)OC(=NCCc3c[nH]c4ccccc34)[C@]2(C)[C@H]2C1=CC[C@H]1C(=O)NC(=O)[C@H]12
1.4 | -0.21 | Cc1nc2cc(NC(=O)CS(=O)(=O)c3ccccc3)ccc2s1
1.2 | -0.78 | Cc1ccc(OCC(=O)OCC(=O)c2ccccc2)cc1C

New compounds follow
KCNQ2 pot | KCNQ2 pot baseline | SMILES
0.64 | 0.16 | Cc1cccc(-n2cnc(C(=O)N/N=C\c3ccc(Br)cc3)c2)n1
0.04 | 1.4 | O=C(CN1CCN(c2ccccc2F)CC1)NCc1ccccc1
0.69 | 0.36 | NC(CO)C12CC3CC(CC(C3)C1)C2 (stereo unspecified)
2.9 | -0.05 | Cc1cc(=O)[nH]c(N/N=C/c2ccc(F)cc2)n1
0.02 | -0.02 | COc1ccc(C2C3=C(CC(C)(C)CC3=O)N(C)C3=C2C(=O)CC(C)(C)C3)cc1
0.23 | 1.2 | CCCCn1c(=O)n(C)c(=O)c2c(C(F)(F)F)cc(-c3ccncc3)nc21
0.11 | 0.91 | NS(=O)(=O)c1cnccc1Nc1ccc(Cl)c(Cl)c1
0.11 | -0.15 | COC(=O)CN1C(=O)[C@H]2[C@@H](/C=C/c3ccccc3)N3C(=O)CN(Cc4ccccc4)C(=O)[C@@]3(Cc3ccccc3)[C@H]2C1=O
2.9 | -0.72 | N=c1c(C(=O)NCC2CCCO2)cc2c(=O)n3ccccc3nc2n1Cc1ccccc1 (stereo unspecified)
0.45 | 5.5 | CCOc1ncccc1C(=O)OCC(=O)c1ccc(C)c(C)c1
0.81 | -0.27 | Cc1nnc(SCC(=O)NC(C)(C)C)n1NCc1ccc(Cl)cc1
0.65 | 0.6 | Cc1ccc(CNC(=O)C2CCCN(c3cnccn3)C2)cc1 (stereo unspecified)
0.5 | -0.35 | COc1ccc(/C=C/c2c(-c3ccc(OC)cc3)oc3ccccc23)cc1
1 | -2 | COc1ncccc1-c1nnn(-c2ccc(Cl)nc2)n1
0.89 | 0.27 | O=C(O)c1ccccc1S(=O)(=O)c1ccccc1CO
0.03 | 2.4 | COC(=O)c1cc(C(=O)Nc2ccc(Cl)cn2)cc([N+](=O)[O-])c1
2.3 | -2.4 | CN(C)CCNC(=O)C(C(=O)c1ccc(F)cc1)n1ccccc1=O (stereo unspecified)
1.6 | -0.12 | CCOC(=O)c1[nH]c(C)c(C(=O)c2cc(F)ccc2F)c1C
0.51 | -1.8 | Cc1ccnc(SCC(=O)c2ccc([N+](=O)[O-])cc2)n1
0.36 | -1.5 | CC(=O)N1CCc2cc(S(=O)(=O)N3CCCCCC3)ccc21
1.2 | -0.1 | COc1ccc(COC(=O)C2CCN(S(=O)(=O)c3ccc(Cl)cc3)CC2)cc1
0.26 | 0.03 | CC(C)(C)c1ccc(S(=O)(=O)N2CCN(CCC#N)CC2)cc1
0.53 | -0.02 | O=C(O)CC/C(=N/Nc1ccc([N+](=O)[O-])cc1)C(=O)O
0.61 | 0.68 | CCN(CC)c1ccc(NC(=O)c2cnc3ccccn3c2=O)c(C)c1
1.5 | -0.49 | Cc1cc(C)n(CCN(C)c2nc3nonc3nc2NC2CC2)n1
0.9 | -0.79 | Cc1ccc(NC(=O)Nc2ccccc2C(N)=O)cc1
0.89 | 0.69 | CCOc1cccc(OCCOCCN2CCCC2)c1
0.55 | 0.62 | CCOC(=O)c1c(NC(=O)c2ccoc2C)sc(C)c1C
0.76 | 0.71 | CC(C)c1ccccc1NC(=O)CNCCOc1ccccc1F
1.4 | 0.16 | Cc1c(NC(=O)OCCSc2nc(N(C)C)nc(N(C)C)n2)sc(=S)n1C

Quoted at random: 2 records from the list.
KCNQ2 pot | KCNQ2 pot baseline | SMILES
2.9 | -0.72 | N=c1c(C(=O)NCC2CCCO2)cc2c(=O)n3ccccc3nc2n1Cc1ccccc1 (stereo unspecified)
0.05 | -0.15 | CC1(C)Cc2c(sc(NC(=O)c3ccco3)c2C#N)CO1

Other records follow.
KCNQ2 pot | KCNQ2 pot baseline | SMILES
1.9 | 1.3 | CCN(Cc1ccccc1)C1CCN(Cc2ccccc2)CC1
1.7 | 1.2 | Clc1ccc(CSc2nc3ccncc3[nH]2)cc1
0.41 | -0.13 | Cc1ccc(S(=O)(=O)Nc2ccc(C(=O)NC3CC3)cc2)cc1
1.3 | 0.68 | COc1cc(OC)nc(NC(=S)NC(=O)c2ccccc2)n1
0.76 | -2.3 | O=C(NCc1ccc2c(c1)OCO2)c1ccc2c(c1)S(=O)(=O)c1ccccc1C2=O
0.57 | 0.04 | C=CCNC(=O)c1cnn(-c2ccccc2)c1-c1ccccc1
0.09 | 0.89 | COCCOc1cc2ncnc(N3CCC(C(=O)O)CC3)c2cc1OCCOC
0.47 | 1 | CC(Oc1ccc(Cl)cc1)C(=O)N/N=C/c1ccsc1 (stereo unspecified)
0.06 | -4.8 | CCCCOc1ccc(C2NC(=O)NC(C)=C2C(C)=O)cc1OCC (stereo unspecified)
0.59 | -0.57 | Cc1cc(=O)n2c3ccccc3n(CC(O)CN3CCC(C)CC3)c2c1C#N (stereo unspecified)
1.1 | 0.08 | CCS(=O)(=O)n1nc(-c2ccccc2)cc1N
1.8 | -0.11 | CC(C)CCOc1ccc(C2=NNC(=O)CC2)cc1
0.86 | 0.31 | CC(=O)NC1C(OCc2cccc(Br)c2)OC(COC(C)=O)C(OC(C)=O)C1OC(C)=O (stereo unspecified)
0.78 | -0.12 | Cc1cc(C)c(NS(=O)(=O)c2c(C)noc2C)c(C)c1
0.43 | -0.2 | CC12CC3(C)CC(C)(C1)CC(NC(=O)N1CCCC1)(C2)C3
0.58 | 0.56 | O=C(O)c1ccc(O)c(N2C(=O)Nc3ccccc3N2O)c1
0.99 | -0.85 | COc1ccccc1Oc1ccc2c(c1)C(=O)N(c1cccc(O)c1)C2=O
0.97 | -2.5 | Cc1ccc(C)c(NC2=NC3(CCCCC3)N=C(N)N2)c1
1.8 | -1.6 | COc1ccc(C(=O)Nc2ccccc2C(=O)N2CCCCCC2)cc1
0.39 | -0.66 | CC(C)c1cc(CNC(=O)c2cc(COc3cncc(Cl)c3)on2)on1
0.03 | -0.4 | COc1ccccc1N(CC(=O)NCc1cccnc1)S(C)(=O)=O
2 | -2.1 | COc1ccc(C(=O)Nc2ccc(S(=O)(=O)Nc3cnc4ccccc4n3)cc2)cc1
1.1 | 0.14 | Cc1cc(NS(=O)(=O)c2ccc(NC(=O)C(F)(F)F)cc2)nc(C)n1
0.15 | -0.35 | O=C(NCC1CCN(Cc2ccccc2F)CC1)Nc1cc(F)ccc1F
1.1 | -1 | COc1cc(CNc2ccc3[nH]c(=O)[nH]c3c2)ccc1OCc1ccccc1
0.41 | -0.02 | COc1ccc([N+](=O)[O-])cc1N(CC(=O)NCC1CCCO1)S(C)(=O)=O (stereo unspecified)
0.49 | -2.1 | CC(C)CCNC(=O)c1ccc(C2SCC(=O)N2Cc2ccco2)cc1 (stereo unspecified)
0.04 | -0.72 | CCOC(=O)c1c(C)n(C)c2cc([N+](=O)[O-])c(O)c([N+](=O)[O-])c12
1.1 | 0.53 | Cc1ccc(CN=C2Nc3ccccc3CS2)cc1

Entries of single compounds, quoted from the list. Order of values: KCNQ2 pot | KCNQ2 pot baseline
Listed for `COc1cc(OC)nc(NC(=S)NC(=O)c2ccccc2)n1` = 1.3 | 0.68
Listed for `CC12CC3(C)CC(C)(C1)CC(NC(=O)N1CCCC1)(C2)C3` = 0.43 | -0.2
Listed for `COCCOc1cc2ncnc(N3CCC(C(=O)O)CC3)c2cc1OCCOC` = 0.09 | 0.89
